Bioassay records as filed in PubChem BioAssay.
RE007 growth inh: less growth of the S. pombe RE007 Vpr strain. S. pombe RE007 Vpr strain, BacTiter-Glo ATP luminescence, 24 h; control for the full effect not named in the record. Potency, µM (doses to about 92.2 µM), for the others: at the top dose activity change, negative = less growth. 360,000 tested, 0.21% active. AID 651644; active = well fitted falling curve with a large enough effect; inconclusive = small, poorly fitted or top-dose-only effect; inactive = no such curve, though single readings can be large or run the other way;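 further: on the % scale 0 is the no-effect control and ±100 the full control effect; nearly all actives have a fitted effect of over 50% in size; the assay follows cell death caused by Vpr and the record does not say whether a fall means rescue or toxicity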
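Fission yeast strain RE007, carrying one chromosomally integrated HIV-1 vpr copy, was seeded at OD 0.01 in PMG+AL medium with 23 nL pinned compound. After 24 h at 30 °C and 99% humidity, viability was read by BacTiter-Glo luminescence.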
Marburg entry inh: blocks Marburg virus binding to or entry into cells; Potency, µM (series often up to 37.8 µM), without a hit: top-dose activity change, negative = inhibition, actives largely listed as inhibitors; 300,000 tested, 1.8% active; Marburg virus pseudotyped entry inhibition, cell reporter; control for the full effect not named in the record; about a third of the inactives were read at about 46 µM; active = well fitted inhibition curve with a large enough effect; inconclusive = small, poorly fitted or top-dose-only effect, or effect the other way; inactive = flat fitted curve, though single readings scatter; tested in HEK293 cells; about a fifth of its hits are not listed in these tables; further: on the % scale 0 is the no-effect control and ±100 the full control effect; luciferase read-out
SARS PLP yeast: SARS-CoV PLP inhibition in yeast; S. cerevisiae expressing SARS-CoV PLpro, growth rescue; control for the full effect not named in the record; Potency, µM (series often up to 32.9 µM), for the others: at the top dose activity, positive = growth rescue; 330,000 tested, 0.19% active; further: 0% is about no effect; nearly all actives have a fitted effect of over 55% in size; growth read by luminescence after 48 h
Cruzain inh Det: blocks cruzain activity in presence of Triton detergent | Potency, µM, for the others: max response, negative = inhibition, hits mostly inhibitors | purified cruzain, Z-FR-AMC fluorescence, 0.01% Triton | 200,000 tested, 0.43% active; active means well fitted curve in the direction sought with a large enough effect; inconclusive means small, poorly fitted or top-dose-only effect, or another doubt; inactive means no such curve, though single readings can be large; an effect the other way counts as inactive or inconclusive;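 further: plate controls were neutral wells for no effect and buffer without enzyme for full effect; nearly all actives have a fitted effect of over 40% in size; top concentration of the series not given in the record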
Target sequence (P25779 123-467 limits assumed): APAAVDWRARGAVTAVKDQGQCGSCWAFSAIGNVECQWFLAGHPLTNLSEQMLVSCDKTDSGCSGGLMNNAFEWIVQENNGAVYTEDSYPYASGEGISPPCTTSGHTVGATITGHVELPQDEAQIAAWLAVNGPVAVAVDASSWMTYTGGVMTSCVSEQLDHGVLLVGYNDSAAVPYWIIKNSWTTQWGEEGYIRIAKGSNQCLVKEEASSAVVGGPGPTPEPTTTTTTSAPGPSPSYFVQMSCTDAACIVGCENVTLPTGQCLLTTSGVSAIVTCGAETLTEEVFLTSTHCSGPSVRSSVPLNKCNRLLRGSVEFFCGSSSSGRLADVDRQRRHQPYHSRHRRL
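Read-out: AMC fluorescence (360 nm excitation, 450 nm emission), four reads over 2 min, first-to-third difference used. Conditions: cruzain 1.5 nM, Z-FR-AMC 2 uM, pH 5.5 acetate, 5 mM DTT, 0.01% Triton X-100.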
Lassa entry inh: blocks Lassa virus binding to or entry into cells; 300,000 tested, 1.2% active; Potency, µM (doses to about 37.9 µM), for inactives: at the top dose activity change, negative = inhibition, most hits filed as inhibitors; AID 540256; Lassa virus pseudotype entry inhibition, cell reporter; control for the full effect not named in the record; active means well fitted inhibition curve with a large enough effect; inconclusive means small, poorly fitted or top-dose-only effect, or effect the other way; inactive means flat fitted curve, though single readings scatter; tested in HEK293 cells; further: on the % scale 0 is the no-effect control and ±100 the full control effect; nearly all actives have a fitted effect of over 50% in size; luciferase read-out
Cruzain inh noDet: inhibitors of Trypanosoma cruzi cruzain without detergent; P25779; purified cruzain, Z-FR-AMC fluorescence, no detergent; Potency, µM, for the others: max response, negative = inhibition, hits mostly inhibitors; 200,000 tested, 2.3% active; AID 1476; active means well fitted curve in the direction sought with a large enough effect; inconclusive means small, poorly fitted or top-dose-only effect, or another doubt; inactive means no such curve, though single readings can be large; an effect the other way counts as inactive or inconclusive;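 further: plate controls were enzyme without inhibitor for no effect and buffer without enzyme for full effect; nearly all actives have a fitted effect of over 40% in size; top concentration of the series not given in the record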
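Purified cruzain at 1.5 nM, pre-incubated 15 min with compound at room temperature in 100 mM sodium acetate pH 5.5, 5 mM DTT, 0.00005% Triton X-100. Reaction started with 2 uM Z-FR-AMC; AMC fluorescence increase over 60 s gives rate.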
2A StopGo: lowers the luciferase signal of an FMDV 2A StopGo reporter; AID 1159524; Potency, µM (top dose mostly 57.9 µM), without a hit: top-dose signal change, negative = less light; 410,000 tested, 1.2% active; human cells with a luciferase reporter of 2A StopGo recoding; control for the full effect not named in the record; active = well fitted falling curve with a large enough effect; inconclusive = small, poorly fitted or top-dose-only effect; inactive = no such curve, though single readings can be large or run the other way; tested in HEK293T cells; further: on the % scale 0 is the no-effect control and ±100 the full control effect; nearly all actives have a fitted effect of over 45% in size; luciferase light after 4 h
NS1 inh: blocks influenza NS1 protein function | S. cerevisiae slowed by influenza A NS1, growth recovery by OD600 | Potency, µM (doses to about 46.1 µM), inactives show top-dose activity, positive = more growth | 270,000 tested, 0.4% active; further: actives are rising curves; nearly all actives have a fitted effect of over 50% in size
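OD600 was taken as the measure of yeast growth restored by compound in an NS1-expressing S. cerevisiae strain. Cells had been washed out of glucose medium and diluted 1:100 into galactose -URA medium, pH 6.0.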
Starred values were filed as active, the others as inactive; & = joins results of further samples; [ ] = remark or other dose. Unless noted, the call rests on the fitted dose curve; in most records, active means well fitted rising curve with a large enough effect; inconclusive means small, poorly fitted or top-dose-only effect; inactive means no such curve, though single readings can be large or run the other way. Potency means the concentration at half of the fitted maximal effect.

What do the screens show for `COc1nc(N(C)C)nc(N(C#N)S(=O)(=O)c2ccc(C)cc2)n1`?
RE007 growth inh: 13%; Marburg entry inh: 8%[46.1 µM]; SARS PLP yeast: 2%; Lassa entry inh: 13%[46.1 µM]; 2A StopGo: -9%; NS1 inh: 11%

What do the screens show for `COc1ccc(C(=O)NCCNc2ccc([N+](=O)[O-])cn2)cc1`?
RE007 growth inh: 5%; SARS PLP yeast: -1%; 2A StopGo: inconclusive; NS1 inh: -2%

How did O=C(CCc1nnc(Cc2c[nH]c3ccccc23)o1)NC(C1CC1)C1CC1 do in these assays?
RE007 growth inh: 96%; Marburg entry inh: inconclusive; SARS PLP yeast: -1%; Lassa entry inh: -20%; 2A StopGo: -9%; NS1 inh: -3%

How did Cc1ccccc1NC(=O)c1cnc2sc(N3CCCC3)nn2c1=O do in these assays?
Cruzain inh Det: -0.7%; Lassa entry inh: -7%[46.1 µM]; Cruzain inh noDet: -1%; 2A StopGo: 5%

Results for Cn1nnnc1SCCNCc1ccccc1F ?
RE007 growth inh: 2%; Marburg entry inh: 14%; SARS PLP yeast: -8%; Cruzain inh Det: -1.7%; Lassa entry inh: -3%; Cruzain inh noDet: -6%; 2A StopGo: -15%; NS1 inh: -1%

How did Cc1ccc(NC2=NCC(Cc3ccc(Br)cc3)S2)cc1 (stereo unspecified) do in these assays?
RE007 growth inh: -24%; Marburg entry inh: inconclusive; SARS PLP yeast: 0%; Lassa entry inh: inconclusive; 2A StopGo: -12%; NS1 inh: -4%

Results for O=C(NCC(=O)N1CCCCCCC1)c1ccc(Br)o1 ?
RE007 growth inh: -2%; Marburg entry inh: inconclusive; SARS PLP yeast: -10%; Lassa entry inh: inconclusive; 2A StopGo: 61%[activator]

Results for CN(CC(=O)Nc1ccccc1C(F)(F)F)C(=O)COc1ccccc1Cc1ccccc1 ?
RE007 growth inh: 3%; Marburg entry inh: -8%; SARS PLP yeast: 0%; Lassa entry inh: 8%; 2A StopGo: -19%

Results for COc1ccc(Cc2nc3ccc(C(=O)NCC(C)(C)OC)cc3o2)cc1 ?
RE007 growth inh: 22%; SARS PLP yeast: -1%; 2A StopGo: 64%[activator]; NS1 inh: -13%

What do the screens show for `CCCCSc1nnc(-c2ccc(C)cc2)c2ccccc12`?
RE007 growth inh: -9%; Marburg entry inh: inconclusive; SARS PLP yeast: -11%; Cruzain inh Det: -3.0%; Lassa entry inh: 0%; Cruzain inh noDet: 14%; 2A StopGo: -1%; NS1 inh: -8%

How did COc1cc2c(cc1OC)C(c1ccc(N(C)C)cc1)CC(=O)N2 (stereo unspecified) do in these assays?
RE007 growth inh: 53%; Marburg entry inh: 13%; SARS PLP yeast: -4%; Cruzain inh Det: 3.3%; Lassa entry inh: inconclusive; Cruzain inh noDet: -11%; 2A StopGo: 3%; NS1 inh: 2%

What do the screens show for `Cc1cc(-c2ccco2)n(-c2ccccc2)n1`?
RE007 growth inh: -19%; Marburg entry inh: 1%; SARS PLP yeast: 5%; Cruzain inh Det: -11%; Lassa entry inh: inconclusive; Cruzain inh noDet: 0%; 2A StopGo: -21%; NS1 inh: inconclusive

Results for Cc1nc(CCNC(=O)Cc2ccccc2)cs1 ?
RE007 growth inh: 2%; Marburg entry inh: -10%; SARS PLP yeast: 0%; Cruzain inh Det: 3.9%; Lassa entry inh: 6%; Cruzain inh noDet: 5%; 2A StopGo: -10%; NS1 inh: -1%

What do the screens show for `CCOC(=O)CSc1nnc(Cc2ccccc2)n1CC1CCCO1` (stereo unspecified)?
RE007 growth inh: 10%; Marburg entry inh: 0%; SARS PLP yeast: 4%; Cruzain inh Det: 3.3%; Lassa entry inh: -10%; Cruzain inh noDet: 5%; 2A StopGo: 19%; NS1 inh: 2%

Results for CCOC(=O)c1ccc(S(=O)(=O)N2CCC(N3CCCCC3)CC2)cc1 ?
RE007 growth inh: 2%; SARS PLP yeast: -1%; 2A StopGo: -20%; NS1 inh: 2%

What do the screens show for `NC(=O)C1CCN(C(=O)Nc2csc3ccccc23)CC1`?
RE007 growth inh: 6%; SARS PLP yeast: -2%; 2A StopGo: 9%; NS1 inh: 7%

What do the screens show for `COc1ccccc1CNC(=O)CS(=O)(=O)Cc1nc(-c2ccccc2C)oc1C`?
Marburg entry inh: 2%[46.1 µM]; Cruzain inh Det: -2.5%; Lassa entry inh: 26%[46.1 µM]; Cruzain inh noDet: 1%; 2A StopGo: -9%

What do the screens show for `CC(=O)c1cn(CCCCCCCn2cc(C(C)=O)c(=O)[nH]c2=O)c(=O)[nH]c1=O`?
RE007 growth inh: -4%; Marburg entry inh: 13%; SARS PLP yeast: -6%; Cruzain inh Det: -0.5%; Lassa entry inh: 3%; Cruzain inh noDet: 3%; 2A StopGo: -3%; NS1 inh: 11%

How did COc1ccc(N(C(=O)c2snc(C(N)=O)c2N)C(C(=O)NC2CCCCC2)c2ccc(C)o2)c(OC)c1 (stereo unspecified) do in these assays?
RE007 growth inh: 1%; Marburg entry inh: 7%[46.1 µM]; SARS PLP yeast: -1%; 2A StopGo: inconclusive; NS1 inh: 17%

How did Cc1cc(C)cc(OCC(=O)Nc2ccc(-c3nc4ccccc4s3)cc2)c1 do in these assays?
Marburg entry inh: 19%[46.1 µM]; Cruzain inh Det: -3.2%; Lassa entry inh: inconclusive; Cruzain inh noDet: -2%; 2A StopGo: 38%[activator]

How did Cc1nn(C)cc1C(=O)/C=C/c1ccc([N+](=O)[O-])cc1 do in these assays?
RE007 growth inh: -21%; Marburg entry inh: inconclusive; SARS PLP yeast: 4%; Lassa entry inh: inconclusive; 2A StopGo: -5%; NS1 inh: 3%

Results for COc1ccccc1CNC(=O)CCN1C(=O)COc2ccccc21 ?
RE007 growth inh: 10%; Marburg entry inh: -18%; SARS PLP yeast: -4%; Cruzain inh Det: 1.8%; Lassa entry inh: -2%; Cruzain inh noDet: -11%; 2A StopGo: -16%; NS1 inh: -9%

What do the screens show for `CN1CCN(C(=O)c2ccc3c(=O)n(Cc4ccc(Cl)cc4)c(=S)[nH]c3c2)CC1`?
RE007 growth inh: 4%; Marburg entry inh: inconclusive; SARS PLP yeast: -1%; Cruzain inh Det: -2.0%; Lassa entry inh: inconclusive; Cruzain inh noDet: -3%; 2A StopGo: -7%; NS1 inh: 5%

Results for O=C(NNC(=O)c1cccc(C(F)(F)F)c1)c1ccncc1 ?
RE007 growth inh: -1%; Marburg entry inh: 1%; SARS PLP yeast: 0%; Lassa entry inh: 20%; 2A StopGo: -4%; NS1 inh: -4%

Results for N#CC1=C(N)Oc2n[nH]c(CSc3ccccc3)c2C12C(=O)Nc1ccccc12 (stereo unspecified) ?
RE007 growth inh: 2%; Marburg entry inh: -11%; SARS PLP yeast: 1%; Cruzain inh Det: -7.0%; Lassa entry inh: -5%; Cruzain inh noDet: -1%; NS1 inh: -2%

What do the screens show for `CCCCOC(=O)C1=C(C)Nc2ncnn2C1c1ccc(OCC)c(OC)c1` (stereo unspecified)?
RE007 growth inh: 13%; Marburg entry inh: -5%; SARS PLP yeast: 4%; Cruzain inh Det: -2.8%; Lassa entry inh: -4%; Cruzain inh noDet: 11%; 2A StopGo: -22%; NS1 inh: -5%

How did O=C(CSc1ncccn1)N1CCN(C(=O)CSc2ncccn2)CC1 do in these assays?
RE007 growth inh: 8%; Marburg entry inh: 7%; SARS PLP yeast: 10%; Cruzain inh Det: -0.4%; Lassa entry inh: 0%; Cruzain inh noDet: -10%; 2A StopGo: -20%; NS1 inh: -11%

Results for Cc1cc(-c2nnc(CCC(=O)NC(C)c3ccccc3Cl)o2)no1 (stereo unspecified) ?
RE007 growth inh: -15%; Marburg entry inh: 0%[46.1 µM]; SARS PLP yeast: 3%; 2A StopGo: 17%

What do the screens show for `CC(C)(C)c1ccc(C(=O)c2c[nH]c(C(=O)NCCCn3ccnc3)c2)cc1`?
RE007 growth inh: -21%[3.69 µM]; Marburg entry inh: -6%; SARS PLP yeast: -4%; Cruzain inh Det: 7.7%; Lassa entry inh: -2%; Cruzain inh noDet: 6%; 2A StopGo: 0%; NS1 inh: 10%

How did COc1ccccc1C(=O)N/C(=C\c1ccc(Br)cc1)C(=O)NCC(=O)O do in these assays?
RE007 growth inh: 3%; Marburg entry inh: inconclusive; SARS PLP yeast: -4%; Cruzain inh Det: -2.1%; Lassa entry inh: 3%; Cruzain inh noDet: -10%; 2A StopGo: 6%; NS1 inh: -5%

What do the screens show for `Cc1cc(C)cc(N(CCC#N)C(=O)CSc2ncnc3sccc23)c1`?
RE007 growth inh: 19%; Marburg entry inh: -10%; SARS PLP yeast: -10%; Lassa entry inh: 5%; 2A StopGo: -30%

What do the screens show for `CCN(C(=O)c1nn(-c2ccc(OC)c(Cl)c2)c(=O)c2c1c1ccccc1n2C)c1cc(OC)ccc1OC`?
Marburg entry inh: inconclusive; Cruzain inh Det: -1.7%; Lassa entry inh: 7%[46.1 µM]; Cruzain inh noDet: -6%; 2A StopGo: inconclusive

Results for NC(=O)c1c(NC(=O)c2ccccc2C(=O)O)sc2c1CCCC2 ?
RE007 growth inh: -19%; Marburg entry inh: 1%; SARS PLP yeast: 1%; Lassa entry inh: 1%; 2A StopGo: -19%; NS1 inh: 5%

Results for O=C(COc1ccc([N+](=O)[O-])cc1)Nc1nnc(-c2cccnc2)s1 ?
RE007 growth inh: -6%; SARS PLP yeast: -1%; 2A StopGo: 6%; NS1 inh: 2%

Results for CCOC(=O)c1cnc(SCC(=O)Nc2cc(C(F)(F)F)ccc2N2CCOCC2)nc1N ?
RE007 growth inh: -1%; Marburg entry inh: -2%&-2%; SARS PLP yeast: 6%; Cruzain inh Det: 0.7%; Lassa entry inh: -22%; Cruzain inh noDet: -22%; 2A StopGo: inconclusive; NS1 inh: 1%
